HPGD inh: qHTS Assay for Inhibitors of HPGD (15-Hydroxyprostaglandin Dehydrogenase). AID 894, 2007. purified HPGD, NADH fluorescence kinetic, PGE2 substrate. actives 4.3% (n = 150,000). 15-hydroxyprostaglandin dehydrogenase [NAD(+)] (Homo sapiens), P15428. Potency, µM, for inactives: at the top dose activity change, negative = inhibition, most hits filed as inhibitors; active = well fitted inhibition curve with a large enough effect (not every such curve was filed as active); inconclusive = small, poorly fitted or top-dose-only effect, or another doubt; inactive = no such curve, though single readings can be large or run the other way;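 note: top concentration of the series not given in the record; plate controls included wells without enzyme; inactives centre near -10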
Target sequence (P15428 whole entry, looked up): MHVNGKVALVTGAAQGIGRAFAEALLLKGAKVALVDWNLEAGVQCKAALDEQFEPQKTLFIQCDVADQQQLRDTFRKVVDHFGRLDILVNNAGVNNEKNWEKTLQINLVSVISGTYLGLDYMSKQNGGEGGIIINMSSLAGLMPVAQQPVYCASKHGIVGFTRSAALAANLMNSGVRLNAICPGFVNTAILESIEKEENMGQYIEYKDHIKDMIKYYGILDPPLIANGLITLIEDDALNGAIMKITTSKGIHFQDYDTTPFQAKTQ
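NADH formation kinetics: reaction with 30 uM PGE2 and 1 mM NAD+ (final), 20 nM enzyme, Tris-HCl pH 8 with Tween 20, after 15 min compound preincubation at room temperature. Fluorescence change, last versus first of five reads.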
An asterisk follows results filed as active; ? = inconclusive; & = joins results of further samples; [ ] = another dose, or the depositor's remark. % is set by controls: 0 for no effect and ±100 for the full control effect; potency is the fitted concentration of half-maximal effect.

canonical_smiles,HPGD inh
CCN(CC)CCCNC(=O)/C(=C\c1cccn1C)NC(=O)c1cccs1,-0.5%
Cn1cc(C(=O)NC2C3CC4CC(C3)CC2C4)cn1 (centres undefined),-26.9%
COc1ccc(C(=O)N2CCN(C(=O)c3ccco3)CC2)cc1OC,-10.3%
COc1ccc(OCC(=O)N2CCN(C(=O)c3cccc4ccccc34)CC2)cc1,-4.5%
C=CCOC(=O)NC(c1ccc(F)c(F)c1)C(C(=O)CCl)C(=O)OC (centres undefined),-22.2%
O=C1CC(N(CCc2ccccc2)C(=S)Nc2cc(Cl)ccc2Cl)C(=O)N1c1c(Cl)cccc1Cl (centres undefined),-16.6%
O=c1[nH]c(=S)c2c(n1-c1ccccc1)CCC2,-12.6%
O=c1c2ccccc2nnn1CSc1nnc(-c2ccc3c(c2)OCO3)o1,-12.7%
Cc1cc([N+](=O)[O-])nn1Cc1ccc(C(=O)N/N=C/c2ccc(O)cc2O)cc1,-20.4%
O=C(NCc1ccco1)C1CC(=O)N(c2ccc(O)cc2)C1 (centres undefined),-3.0%
O=C(CSc1nnc(-c2cccnc2)n1-c1ccccc1)Nc1ccccn1,-9.8%
CCC(C)c1ccc(O)c(NC(=O)c2ncn[nH]2)c1 (centres undefined),-11.5%
COCCn1c(SCC#N)nnc1-c1ccc2c(c1)OCO2,-21.6%
Cc1cccc(C2=N[C@@H](CC(C)C)CO2)c1,-6.8%
COC(=O)[C@H](C)NC(=O)/C=C/c1ccc(OC)cc1,-12.1%
O=C1OCCN1/N=C/c1ccc([N+](=O)[O-])o1,-9.2%&-7.5%
Cc1cccc(C)c1OCC(O)Cn1nnc2ccccc21 (centres undefined),-17.1%
C/C(CC(=O)Nc1ccccn1)=N\NC(=O)C(=O)Nc1cccc(Cl)c1C,-14.2%
Cn1c(=O)c2cc(S(=O)(=O)NCCC(=O)Nc3ccccc3F)ccc2n(C)c1=O,0.5%
CC(C)CSc1nsc(N)n1,-10.9%
C=CCN1C(=O)/C(=C/c2ccc(O)c(OC)c2)S/C1=N/c1nccs1,-16.7%
C=C1CC[C@H](O)C/C1=C/C=C1\CCC[C@]2(C)[C@@H]([C@H](C)CC[C@@H](O)C(C)(C)O)CC[C@@H]12,-3.5%
Cc1cc2nc(-c3cccc(NC(=O)c4ccc(Br)o4)c3)oc2cc1C,33.0%[activator]
COc1ccccc1S(=O)Cc1ccc(C(=O)NCc2ccccc2Cl)o1 (centres undefined),-5.1%
N#Cc1ccc(C(=O)N/N=C/c2cn(CC(=O)O)c3ccccc23)c(F)c1,-17.6%
CN(C)CC(=O)c1ccc(-c2ccccc2)cc1,-22.4%
Cc1n[nH]c(=O)nc1N1CCc2ccccc2C1,-10.5%
O=C(c1cccs1)N(Cc1cc2ccccc2[nH]c1=O)c1ccccc1,-12.3%
CCn1c(=O)c(C(=O)Nc2nc3ccccc3[nH]2)c(O)c2ccccc21,-7.5%
Cc1ccc(-c2nc(-c3ccccn3)no2)cc1Cl,-19.3%
COc1ccc(CCNC(=O)CSc2nc3c(c(=O)n(C)c(=O)n3C)n2C(C)C)cc1OC,-5.1%
c1cc2nnnn2nc1N1CCCCCC1,-18.1%
COC(=O)c1ccc(C(=O)OC)c(N)c1,?
O=S(=O)(Nc1nc2ccccc2nc1N1CCN(c2ccccc2)CC1)c1ccc(F)cc1,-7.1%
Cc1ccccc1SCc1noc(C(=O)NCC2CCCO2)c1C(=O)O (centres undefined),-12.8%
CS(=O)(=O)c1ccc([C@H](O)[C@H](CO)NC(=O)C(Cl)Cl)cc1,-0.2%
CCCN(Cc1ccccc1)C(=O)Nc1ccc2c(c1)nnn2C,-17.4%
COC(=O)Cc1[nH]nc2c1C(c1c[nH]c3ccccc13)C(C#N)=C(N)O2 (centres undefined),-14.0%
CSc1ccccc1-c1nnc(-c2ccc(Cl)cc2)o1,?
COc1ccc(OC)c(C(=O)CSc2nccc(-c3ccc(Br)cc3)n2)c1,?
COc1ccc2c(c1)Sc1ccccc1N2CCN(C)C,5.0%
CCSC(C)CC1C/C(=N/O)c2c(CC)noc2C1 (centres undefined),?
COc1ccc(C)cc1NCc1cccc(OC)c1OC,-1.1%
Cc1ccc(C(=O)Nc2ccc(Cl)cc2C(F)(F)F)c(Cl)c1,-1.0%
CCSc1nc(C2CC2)cc(-c2ccco2)c1C#N,-18.2%
Clc1ccc(OCc2nnc3n2N=C(c2ccc4c(c2)OCCO4)CS3)c(Cl)c1,-18.8%
CCC1C/C(=C\c2cccnc2)C(=O)/C(=C/c2cccnc2)C1 (centres undefined),-24.7%
c1ccc(C(c2nnnn2C2CCCC2)N2CCN(c3nc4ccccc4s3)CC2)cc1 (centres undefined),-6.5%
c1ccc([C@@H]2CN3CCSC3=N2)cc1,3.2%
COC(=O)Cc1ccc(NC(=S)NCCC(C)C)cc1,-22.6%

Random excerpt: 4 records from the list
canonical_smiles,HPGD inh
O=C(c1cccs1)N(Cc1cc2ccccc2[nH]c1=O)c1ccccc1,-12.3%
Cc1ccc(C(=O)Nc2ccc(Cl)cc2C(F)(F)F)c(Cl)c1,-1.0%
Cc1n[nH]c(=O)nc1N1CCc2ccccc2C1,-10.5%
Clc1ccc(OCc2nnc3n2N=C(c2ccc4c(c2)OCCO4)CS3)c(Cl)c1,-18.8%

(further entries)
canonical_smiles,HPGD inh
CCC(C)C(Nc1ccc(C(=O)OC)cc1[N+](=O)[O-])C(=O)OC (centres undefined),-0.3%
Cc1cccc(NS(=O)(=O)c2cc(C(=O)NCCC3=CCCCC3)ccc2Cl)c1,-9.6%
CC1(C)Oc2ccc3ccc(=O)oc3c2-c2cnoc21,?
CC(=O)c1cc2c(cc1NC(=O)C1CC1)OCO2,-15.6%
OC(CN1CCOCC1)CN1CCOCC1,-4.7%
Cn1c(=O)c2c(nc(SCCCO)n2Cc2ccccc2Cl)n(C)c1=O,2.1%
COc1ccc(OC)c(NC(=O)c2c(NC(=O)CCC(=O)O)sc3c2CCCCC3)c1,-0.6%
CC(=O)N1CCN(c2ccc(NCc3ccc(C(C)C)cc3)cc2)CC1,-10.1%
COCCCNCC1C(Oc2ccc(Cl)cc2)C(=O)N1c1ccccc1C (centres undefined),-5.4%
COc1cc2c(cc1OC)-c1nnc(C)n1C1(CCCC1)C2,-5.3%
CC(C(=O)NC1=NCCS1)N1C(=O)C2CC=CCC2C1=O (centres undefined),-0.5%
Cc1cc(-c2n[nH]c(=S)n2/N=C/c2cccs2)n[nH]1,?
Cc1nccn1CC(O)COc1ccccc1 (centres undefined),-1.1%
CCOP(=O)(c1ccc(N(C)C)cc1)C(O)c1cc(OC)c(OC)c(OC)c1 (centres undefined),-18.4%
CCOc1cccc(C(=O)Nc2cccc(-c3nc4ncccc4o3)c2C)c1,?
CC(=O)c1cccc(NC2c3ccccc3C(=O)N2Cc2ccc3c(c2)OCO3)c1 (centres undefined),-22.7%
COCCCn1c(=NC(=O)c2ccncc2)c(C#N)cc2c(=O)n3cccc(C)c3nc21,?
c1ccc(C2C/C(=N\N3CCOCC3)c3ccccc3O2)cc1 (centres undefined),3.6%
CCn1c(SCC(=O)Nc2cc(C)on2)nnc1-c1ccc(S(=O)(=O)N2CCN(C)CC2)cc1,-15.7%
COc1ccc(-c2nc3cnc(Oc4ccccc4)nc3n(C3CC3)c2=O)cc1,?
C/C=C/c1ccc(OC)cc1,-8.7%
CSCC[C@@H](C(=O)O)N(C)C,-5.3%
COc1ccc(OC)c(CN(CCN2CCOCC2)C(=O)Nc2ccccc2)c1,-1.1%
CN1CCN(CCCNC(=O)c2ccc(CSCc3cccc(Cl)c3)o2)CC1,-2.9%
CCOC(=O)c1c(NC(=O)CSc2nc3ccccc3s2)sc(C(C)=O)c1C,-20.5%
CCNC(=O)CON=C1c2ccccc2-c2ccccc21,-13.7%
CCOc1ccc(NC(=O)C2CCCN(C(=O)Nc3ccccc3)C2)cc1 (centres undefined),-17.7%
Cc1ccc(Oc2ccc(OCC(=O)NC(C)C(=O)O)cc2)cc1 (centres undefined),-22.7%
Cc1cc(C(F)(F)F)n2ncc(C(=O)O)c2n1,-12.3%
COC(=O)c1[nH]c2cccc(Cl)c2c1NC(=O)CN1CCN(CCO)CC1,?
COc1ccc(C2SCCN2S(=O)(=O)c2ccc(NC(C)=O)cc2)cc1 (centres undefined),-12.9%
CCc1cccc2c(C(=O)COC(=O)/C=C/c3ccc(O)c(OC)c3)c[nH]c12,?
CN(C)C(CNC(=O)CN1C(=O)NC2(CCc3ccccc32)C1=O)c1ccco1 (centres undefined),-10.0%
Nc1nc(-c2ccccc2)c(N=Nc2ccc(Cl)cc2)s1,?
O=C(c1ccc2c(c1)OCO2)N1CCOCC1,14.1µM*
COc1ccc(C2C(C#N)=C(/N=C/N3CCOCC3)OC3=C2C(=O)CC(C)(C)C3)cc1OC (centres undefined),-16.4%
CCCc1cc(=O)[nH]c(SCC(=O)Nc2c(C)cccc2C)n1,-6.8%
CCn1cc(C2=NOC(C(=O)Nc3cccc(C(C)=O)c3)C2)c(C)n1 (centres undefined),-11.4%
O=C(N/N=C\c1cc(Br)cs1)C1COc2ccccc2O1 (centres undefined),-8.3%
CC(=O)N(CCCN1CCOCC1)Cc1ccncc1,-2.9%
Cc1ccc(NC(=S)N(CCN2CCCCC2)Cc2ccco2)cc1,-5.8%
c1ccc(C2=Nn3c(nnc3-c3cccnc3)SC2)cc1,-8.9%
COc1ccc(OC)c(N=C(C)C2=C(O)COC2=O)c1,-3.8%
CCOC(=O)C1CCN(C(=O)CN(c2ccc(OC)c(OC)c2)S(=O)(=O)c2ccccc2)CC1,-4.5%
O=C(COc1ccc(S(=O)(=O)NC2CCCCC2)cc1)N1CCN(c2cccc(Cl)c2)CC1,-20.2%
CC(C)CNC(=S)NC1CC2CCCC(C1)N2Cc1ccco1 (centres undefined),-2.9%
O=C(CSc1nnnn1-c1ccccc1Cl)Nc1ccc2c(c1)OCCO2,-5.8%
N/C(=N\O)c1cn([C@@H]2O[C@@H](CO)[C@H](O)[C@@H]2O)c2ncnc(NO)c12,-6.8%
Cc1cccc(N=C2Sc3nc4c(C)c(C)ccc4cc3CN2CCN2CCOCC2)c1,-9.7%
CCOC(=O)C1CCN(C(=O)C(C)Sc2ccc(Cl)cc2)CC1 (centres undefined),-8.1%

More compounds:
canonical_smiles,HPGD inh
CC(=O)Nc1ccc(C(=O)n2nc(C)cc2C)cc1,-17.8%
Cc1cc(C)c(S(=O)(=O)Nc2cccnc2)c(C)c1,-8.9%
CN1CC(=O)N/C1=N/C(=O)Nc1cccc(Cl)c1,-13.6%
COc1ccc(C(=O)NN)cc1COc1ccc(Br)cc1,-4.8%
O=C(NCc1ccc2c(c1)OCO2)C1CCC(CNc2c(N3CCCCC3)c(=O)c2=O)CC1 (centres undefined),-16.2%
O=C(c1ccccc1F)N(Cc1ccc(F)cc1)C1CCS(=O)(=O)C1 (centres undefined),-1.5%
CCC(C(=O)OCC(=O)Nc1cc(Cl)ccc1Cl)c1ccccc1 (centres undefined),-12.2%
COc1ccc(/C=N/OCC(=O)NC(c2ccccc2)c2ccccc2)c(OC)c1,?
COc1ccccc1N1CCN(CC(=O)c2c(C)[nH]c3cc(C)ccc23)CC1,-12.8%
O=C(c1ccc(Cc2nc3ccccc3[nH]2)cc1)N1CCCCC1,15.8µM*
O=c1c2c([nH]c3ccc(Br)cc13)CCCC2,-3.8%
CCN(CC)CCCNC(=O)CN1C(=O)CSc2ccc(S(=O)(=O)N3CCOCC3)cc21,-0.9%
CCOC(=O)C1=NOC(CNC(=O)C2=NOC(CNC(=O)c3c(-c4ccccc4Cl)noc3C)C2)C1 (centres undefined),-4.6%
COC(=O)C1=C(N)Oc2cc(C)n(CC3CCCO3)c(=O)c2C1c1ccc(Cl)c(Cl)c1 (centres undefined),-20.2%
COCC(=O)Nc1ccc(S(=O)(=O)Nc2ncccn2)cc1,-7.4%
NS(=O)(=O)c1ccc(CCNC(=O)c2ccccc2F)cc1,-12.5%
COc1ccc(N)cc1C#N,-14.0%
Cc1ccc(NC(=O)C2=C(O)CCn3c2nc2ccccc23)cc1,?
O=C(Cc1ccccn1)Nc1ccccc1,-12.3%
O=C(CN1C(=O)c2cccc3cccc1c23)NCc1ccc2c(c1)OCO2,-25.8%
COc1ccc(NC2CS(=O)(=O)CC2OC(=O)c2ccc(F)cc2)cc1 (centres undefined),-9.9%
Cc1cc(C)n(-c2cc(N3CCN(C(=O)c4cccc(F)c4)CC3)ccc2[N+](=O)[O-])n1,-13.4%
OC(COC(c1ccc(Cl)cc1)c1ccc(Cl)cc1)CN1CCc2ccccc2C1 (centres undefined),-10.0%
CCN(c1ccccc1)S(=O)(=O)c1ccc(Cl)c(NC(=O)COC(=O)c2ccc(Cl)c(N)c2)c1,?
CCCCNC(=O)Nc1nnc(-c2ccc(OCC)cc2)o1,-12.3%
CCOC(=O)c1cc(-c2ccccc2)sc1NC(=O)c1cc(OC)c(OC)c(OC)c1,?
OCCCN1CCN(CCCOc2ccccc2-c2ccccc2)CC1,-10.1%
COCC(=O)NCCc1nc2ccccc2[nH]1,-5.5%

Not all compounds are listed; rates above refer to the full screens.
